Env fusion inh: inhibitors of HIV Env-mediated cell fusion; HeLa-JRFL Env/CEM21 cell fusion, luciferase; inhibition, % at 12.3 µM; hit rate 1.1% among 360,000; AID 651610;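 active = mean replicate inhibition score of at least 50 and every replicate individually at or above 50; inconclusive = only one of the two criteria met; inactive = mean below 50 and not all replicates reaching 50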;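 also: 0% = plate neutral controls and 100% = maraviroc near 300 nM; one replicate is shown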
CSC inhib: blocks cancer stem cells. cancer stem cell-like cells viability, luminescence. hit rate 1.1% among 300,000. inhibition, % at 7.5 µM. AID 2717;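 active = mean at 75% or more and at least half the replicates too; inconclusive = mean and replicates disagree; tested in HMLE shEcad cells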;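 also: 0% = median of negative and 100% = median of positive control wells; the first replicate is given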
Yeast UUG start: alters start codon recognition fidelity in yeast; S. cerevisiae UUG-firefly luciferase reporter, luminescence/redox ratio; activity score, % at 18.7 µM; hit rate 0.13% among 350,000; AID 602363;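 active = replicate mean at a twofold rise or more, about +100% in these data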;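 also: firefly luciferase made from a UUG start codon reports start codon fidelity; reporter light over untreated wells divided by growth signal over untreated wells; some hits fall short of that in this replicate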
Rce1 inhib: blocks yeast Ras-converting enzyme; yeast membranes, quenched prenylated peptide cleavage fluorescence; hit rate 0.27% among 290,000; AID 2563; calls only; Q03530;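 active = fall in fluorescence gain of 50% or more versus controls, with final raw signal at or below 3038400; inconclusive = same 50% fall but final raw signal above 3038400; inactive = fall in fluorescence gain under 50%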;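 also: plate controls were neutral control wells for no effect and wells lacking membranes for full effect; tested at 10 µM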
PABP FP inh: PABP-poly(A) binding inhibition; PABP-poly(A) RNA binding, fluorescence polarization; inhibition, % at 35 µM; hit rate 1% among 290,000; AID 2014;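 active = 50% or more with normal probe brightness, or confirmed in later tests; inconclusive = above 50% with abnormal brightness, or retests that disagree; inactive = below 50% or failed in later tests; about a fifth of its hits are not listed in these tables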;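 also: calls also rest on retests at 20 µM and on dose response follow-up; controls were probe without protein and protein plus probe with vehicle; some compounds called inactive have numbers as strong as hits; many hits fall short of the cut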
Target sequence (P11940 whole entry, looked up): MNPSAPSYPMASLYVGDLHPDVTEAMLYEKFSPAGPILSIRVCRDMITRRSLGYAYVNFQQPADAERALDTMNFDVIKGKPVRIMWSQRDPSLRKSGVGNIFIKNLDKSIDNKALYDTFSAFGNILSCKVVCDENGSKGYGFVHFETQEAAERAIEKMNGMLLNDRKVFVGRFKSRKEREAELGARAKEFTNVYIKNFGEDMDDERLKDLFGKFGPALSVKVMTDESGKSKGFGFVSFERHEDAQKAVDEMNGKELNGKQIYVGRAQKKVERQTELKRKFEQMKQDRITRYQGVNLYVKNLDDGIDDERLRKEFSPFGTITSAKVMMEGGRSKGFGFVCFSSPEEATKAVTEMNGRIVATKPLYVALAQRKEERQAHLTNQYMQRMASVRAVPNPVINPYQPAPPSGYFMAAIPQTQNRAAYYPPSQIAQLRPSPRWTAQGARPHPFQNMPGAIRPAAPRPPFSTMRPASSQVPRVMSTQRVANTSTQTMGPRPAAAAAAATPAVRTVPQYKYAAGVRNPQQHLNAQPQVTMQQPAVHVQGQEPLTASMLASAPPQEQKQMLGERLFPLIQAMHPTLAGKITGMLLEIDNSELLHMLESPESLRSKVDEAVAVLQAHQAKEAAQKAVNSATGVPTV
eIF4H inh: inhibitors of RNA binding by human eIF4H. hit rate 0.94% among 290,000. Q15056. inhibition, % at 35 µM. eIF4H fluorescence polarization binding assay;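 active = 50% or more with normal probe brightness, or confirmed in later tests; inconclusive = above 50% with abnormal brightness, or retests that disagree; inactive = below 50% or failed in later tests; about a fifth of its hits are not listed in these tables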;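 also: calls also rest on retests at 20 µM and on dose response follow-up; 0% = protein and probe with vehicle and 100% = probe without protein; strong numbers were not always called active; many hits fall short of the cut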
MT1-MMP act inh: inhibitors of human MT1-MMP activation; GFP/RFP ratio change, % at 20 µM; AID 651647; HT1080 RFP-PRO-GFP cells, GFP/RFP ratio fluorescence, overnight; percent of plate control window, DMSO zero; hit rate 0.061% among 360,000;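 active = GFP/RFP ratio change of at least 30% with cell ATP level not reduced by more than half and red fluorescence within 50% of control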; also: strong numbers were not always called active
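Assay system: HT1080 RFP-PRO-GFP cells | Dosing: 20 µM single dose, 1% DMSO | Incubation: Cells overnight before dosing, compound overnight, 37 °C, 5% CO2 | Evaluation: GFP/RFP fluorescence ratio | Control set: DMSO-only wells and HT1080 RFP-L50D-GFP cell wells as references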
MT1-MMP act inh RFP: further read-out of MT1-MMP act inh, marked with its call; RFP signal change, %; measured here: RFP expression control read;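 0 = vehicle wells; hits needed this value within 50% of zero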
* marks the source's active call; other numbers are inactive results; i = inactive; ? = inconclusive; / = no result given; & = joins results of further samples. These rows are one share of the data; rates above refer to the full screens.

entry	SMILES	Env fusion inh	CSC inhib	Yeast UUG start	Rce1 inhib
1	Cc1cccc(C)c1NC(=O)C(c1ccccc1)N1CCN(c2ccc(F)cc2)CC1 (centres undefined)	-16	/	-6	/
2	O=C(NCc1ccccc1F)c1ccc2c(c1)OCO2	-39	-6	-14	i
3	CC(=O)c1ccc(Sc2ccccc2)cc1	-161	/	-17	i
4	CCN(C(=O)c1ccco1)C1C2CC3CC(C2)CC1C3 (centres undefined)	14	-5	-8	i
5	Cc1cccc(NC(=O)CCS(=O)(=O)c2ccc3nc(C)sc3c2)c1	15	/	16	/
6	CC1(C)CC(NC(=O)COc2ccc3c4c(c(=O)oc3c2)CCCC4)CC(C)(C)N1	-3	-7	-11	?
7	CS(=O)(=O)c1ccc(-c2nnc(NC(=O)C3=COCCO3)o2)cc1	11	-3	2	i
8	Cc1ccc(OCC(=O)N/N=C/c2cn(C)c3ccccc23)cc1	1	/	-15	i
9	C[C@@H](CSc1ccc(Br)cc1)CN1CC[C@H](NC(=O)OCc2ccccc2)CCC1=O	29	91*	3	/
10	CC(C)Cn1c(SCC(=O)N2CCCc3ccccc32)nc2ccccc2c1=O	44	8	/	i
11	CCOC(=O)C/C(C)=N\Nc1ccc([N+](=O)[O-])cc1[N+](=O)[O-]	1	4	/	i
12	COc1ccc(CN2CCN(C(=O)c3cccc4ccccc34)CC2)c(OC)c1OC	1	-7	146*	i

entry	PABP FP inh	eIF4H inh	MT1-MMP act inh	MT1-MMP act inh RFP
1	/	/	1	-3
2	-5	-6	17	7
3	4	-10	-3	0
4	6	-3	-20	-8
5	/	/	5	0
6	6	-3	0	5
7	/	/	-2	2
8	7	5	6	-3
9	/	/	0	-20
10	-14	1	/	/
11	-2	-7	20	7
12	12	13	-1	-6

Continuation:
entry	SMILES	Env fusion inh	CSC inhib	Yeast UUG start	Rce1 inhib
13	CC(C(=O)O)N1CCCCC1 (centres undefined)	4	-14	-19	i
14	COc1ccc(CN2C(=O)C(C)S/C2=N/N=C/c2ccco2)cc1 (centres undefined)	-25	2	-6	i
15	Cc1cc(C)c(S(=O)(=O)N2CCCC2=O)c(C)c1	0	-12	-19	i
16	COc1ccccc1OCC(=O)c1[nH]c(C)c(C(C)=O)c1C	74*	-10	-4	i
17	CC(=O)Nc1c(C(=O)O)ccc(C)c1OCc1ccccc1	-28	/	-5	/
18	CCOc1ccccc1C(=O)N(C)Cc1cc2cc(OC)ccc2[nH]c1=O	/	-15	/	i
19	O=C(CN1C(=O)NC(Cc2c[nH]c3ccccc23)C1=O)Nc1ccc(Br)cc1F (centres undefined)	9	6	-9	/
20	CSc1nsc(SC)c1C(=O)NC(=O)Nc1cccnc1	-3	17	/	i
21	COc1cc(/C=C2\CCc3c2nc2ccccc2c3C(=O)O)cc(OC)c1OC	-200	-5	-15	i
22	COc1ccc(-n2ncc3c2CC(C)(C)CC3NC(=O)CCC2=NNC(=O)CC2)cc1 (centres undefined)	-5	0	-5	i
23	O=[N+]([O-])c1ccc(NCCCNS(=O)(=O)c2ccccc2)c(Cl)c1	28	-5	/	i
24	O=S(=O)(c1cccc(F)c1)N1CCN(C(=S)NCc2ccccc2)CC1	7	3	-21	i

entry	PABP FP inh	eIF4H inh	MT1-MMP act inh	MT1-MMP act inh RFP
13	-3	-1	0	2
14	5	-4	4	0
15	-3	2	1	4
16	13	32	11	-9
17	/	/	0	4
18	-2	-5	2	4
19	/	/	2	0
20	0	-4	-1	1
21	66*	87*	4	5
22	3	-4	1	2
23	-10	-8	-5	-2
24	-11	-3	-3	1

Other results.
entry	SMILES	Env fusion inh	CSC inhib	Yeast UUG start	Rce1 inhib
25	Cn1c(SCC(=O)NCC2CCCO2)nnc1-c1c[nH]c2ccccc12 (centres undefined)	-11	-12	-26	i
26	O=C1CN(c2nc(-c3cccs3)nc3sc4c(c23)CCCC4)CCN1	6	15	/	i
27	CCS(=O)(=O)N1CCC(C(=O)NCc2ccc3c(c2)OCO3)CC1	-4	5	/	i
28	COC(=O)c1c(C)[nH]c(C=O)c1-c1ccccc1	-33	-20	1	i
29	COc1ccc2[nH]c(C)c(CCN3C(=O)C4CC=CCC4C3=O)c2c1 (centres undefined)	-4	-1	-6	i
30	O=C(CCN1C(=O)c2ccccc2C1=O)N1CCN(Cc2ccccc2)CC1	/	/	4	i
31	O=C(Cc1ccccc1)Nc1cccc(NC(=O)c2cccs2)c1	10	/	/	i
32	COc1ccc(-c2noc(CN3CCCC(OCc4ccccn4)C3)n2)cc1 (centres undefined)	21	/	12	i
33	COc1ccc(C(=O)NNC(=O)C2CCCO2)cc1 (centres undefined)	-2	-2	/	i
34	Cc1nnc(NC(=O)c2c(-c3ccccc3Cl)noc2C)s1	-1	-20	/	i
35	O=C(O)CCC1OC(=O)C(O)=C1c1ccccc1 (centres undefined)	/	-2	-9	i
36	Cc1ccc(S(=O)(=O)N(C)C[C@@H]2Oc3ncc(Br)cc3C(=O)N([C@H](C)CO)C[C@@H]2C)cc1	11	/	-6&15&5	/

entry	PABP FP inh	eIF4H inh	MT1-MMP act inh	MT1-MMP act inh RFP
25	1	-5	-4	1
26	1	-1	-7	1
27	10	-3	0	3
28	-1	12	2	-3
29	-6	-6	12	4
30	-5	0	/	/
31	-5	7	1	-3
32	8	7	4	-7
33	1	-10	1	4
34	0	-2	-4	0
35	7	2	2	6
36	/	/	2	4

Later entries.
entry	SMILES	Env fusion inh	CSC inhib	Yeast UUG start	Rce1 inhib
37	Nc1c(Cl)cc(C(=O)NC2CC2)cc1Cl	10	/	-8	/
38	O=C(NCCN1CCOCC1)c1ccc2c(c1)N(Cc1cccc(F)c1)C(=O)c1ccccc1S2	-98	7	/	i
39	COc1ccccc1C1CCN(Cc2ccc(Cl)c(Cl)c2)CC1	26	26	4	i
40	O=C(CSc1ccsc1[N+](=O)[O-])N1CCN(c2ccccn2)CC1	-7	2	-12	i
41	OCCCNc1ncnc2scc(-c3ccc(Cl)cc3)c12	62*	-13	-1	i
42	NC(=O)c1cc([N+](=O)[O-])ccc1NCc1ccccn1	-18	2	-30	/
43	O=C(COC(=O)CNC(=O)c1ccc(Br)cc1)Nc1nnc(-c2ccccc2)o1	8	2	4	i
44	C[C@H](NC(=O)c1nc[nH]c1C(=O)N1CCN(C(=O)OC(C)(C)C)CC1)C(=O)OCc1ccccc1	-2	-8	-18	i
45	Cc1ccc(NC(=O)COC(=O)c2c(-c3ccccc3)noc2C)cc1	/	1	-13	/
46	Cc1ccc(OCCC(=O)OCC(=O)c2c(N)n(CC(C)C)c(=O)n(C)c2=O)cc1	-11	/	15	/
47	CCCCCC(=O)N1C[C@H](n2cc(COC(=O)c3ccccc3)nn2)[C@@H](O)C[C@@H]1c1ccc(Cl)cc1	-148	/	-14	/
48	CC1CCCCC1NC(=O)NC(=O)COC(=O)c1ccc(OC(F)F)cc1 (centres undefined)	12	/	2	/

entry	PABP FP inh	eIF4H inh	MT1-MMP act inh	MT1-MMP act inh RFP
37	/	/	1	4
38	10	-1	-2	3
39	-6	-5	3	3
40	-12	4	-3	-8
41	14	6	-13	-10
42	/	/	2	4
43	/	/	0	1
44	2	-14	2	4
45	/	/	4	-5
46	/	/	5	-13
47	/	/	20	32
48	/	/	-2	-1

(next part)
entry	SMILES	Env fusion inh	CSC inhib	Yeast UUG start	Rce1 inhib
49	Cc1oc(-c2ccccc2F)nc1CS(=O)(=O)CC(=O)NCc1ccccc1Cl	-19	-8	-11	i
50	COc1nc(NC23CC4CC(CC(C4)C2)C3)nc(OC)n1	/	-5	-20	i
51	Cn1nc(-c2ccccc2)c2ncc(C(F)(F)F)cc21	/	-9	/	i
52	COc1ccc(S(=O)(=O)N2CCC(C(=O)NCCC(=O)Nc3nccs3)CC2)cc1	10	15	-11	i
53	O=C(NC(=O)c1ccc(C(F)(F)F)cc1)Nc1ccc(-c2cnco2)cc1	7	2	/	i
54	CC12CCC(=O)N1C(C(=O)Nc1ccccc1N1CCOCC1)CS2 (centres undefined)	17	-6	-41	i
55	CCc1cc2c(=O)c(-c3nc4ccccc4n3C)c(CCCC(=O)O)oc2cc1OC(=O)C(C)(C)C	19	/	-23	i
56	CC(C)[C@H](NC(=O)NCCc1ccc(Cl)cc1)C(=O)O	/	/	-3	i
57	O=C(Nc1ccc(NC(=O)c2cc([N+](=O)[O-])ccc2N2CCOCC2)cc1)c1cccs1	-11	-3	-17	i
58	COc1ccc(N2CCN(C(=O)c3oc4c(c3C)C(=O)CCC4)CC2)cc1	23	-8	-2	i
59	COc1ccc(N2CCN(C(=O)C(OC(C)=O)c3ccccc3)CC2)cc1 (centres undefined)	-47	-3	-11	i
60	c1ccc2c(c1)oc1c(N3CCOCC3)ncnc12	/	-3	-17	i

entry	PABP FP inh	eIF4H inh	MT1-MMP act inh	MT1-MMP act inh RFP
49	4	-9	9	4
50	-11	2	-1	-8
51	-2	2	-2	-1
52	7	6	-1	-1
53	-10	-1	1	0
54	-2	-2	0	3
55	3	3	0	4
56	0	-2	3	2
57	10	-2	-3	-6
58	-1	-4	-3	-5
59	4	1	0	1
60	21	1	-4	-4

(list continues)
entry	SMILES	Env fusion inh	CSC inhib	Yeast UUG start	Rce1 inhib
61	Cc1ccc[n+](Cc2ccc([N+](=O)[O-])cc2)c1	-8	-17	/	i
62	CSCCC(CO)NC(=O)OCc1ccccc1 (centres undefined)	/	22	-8	i
63	O=C1Nc2ccccc2C12OCCS2 (centres undefined)	/	-2	/	i
64	Nc1ccnn1Cc1cccs1	-9	-7	-10	i

entry	PABP FP inh	eIF4H inh	MT1-MMP act inh	MT1-MMP act inh RFP
61	-12	-7	2	2
62	4	-4	-4	0
63	0	4	/	/
64	-7	-2	3	6

Full records, looked up by structure:
`Cc1ccc[n+](Cc2ccc([N+](=O)[O-])cc2)c1` as listed: Env fusion inh: -8; CSC inhib: -17; Yeast UUG start: /; Rce1 inhib: i; PABP FP inh: -12; eIF4H inh: -7; MT1-MMP act inh: 2; MT1-MMP act inh RFP: 2
`O=C1Nc2ccccc2C12OCCS2` (centres undefined) as listed: Env fusion inh: /; CSC inhib: -2; Yeast UUG start: /; Rce1 inhib: i; PABP FP inh: 0; eIF4H inh: 4; MT1-MMP act inh: /; MT1-MMP act inh RFP: /
